Source: PubChem
RE007 growth inh: less growth of the S. pombe RE007 Vpr strain; S. pombe RE007 Vpr strain, BacTiter-Glo ATP luminescence, 24 h; control for the full effect not named in the record; actives 0.21% (n = 360,000); Potency, µM (titrated, usually from 92.2 µM), for the others: top-dose activity change, negative = less growth; AID 651644; active = well fitted falling curve with a large enough effect; inconclusive = small, poorly fitted or top-dose-only effect; inactive = no such curve, though single readings can be large or run the other way;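 note: % is set by controls: 0 for no effect and ±100 for the full control effect; nearly all actives have a fitted effect of over 50% in size; the assay follows cell death caused by Vpr and the record does not say whether a fall means rescue or toxicity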
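Fission yeast strain RE007, carrying one chromosomally integrated HIV-1 vpr copy, was seeded at OD 0.01 in PMG+AL medium with 23 nL pinned compound. After 24 h at 30 °C and 99% humidity, viability was read by BacTiter-Glo luminescence.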
StopGo reporter: FMDV 2A StopGo reporter, luciferase signal; human cells with a luciferase reporter of 2A StopGo recoding; control for the full effect not named in the record; Potency, µM (top dose mostly 57.9 µM), inactives show at the highest dose signal change, negative = less light; actives 1.2% (n = 410,000); AID 1159524; active = well fitted falling curve with a large enough effect; inconclusive = small, poorly fitted or top-dose-only effect; inactive = no such curve, though single readings can be large or run the other way; tested in HEK293T cells; note: % is set by controls: 0 for no effect and ±100 for the full control effect; nearly all actives have a fitted effect of over 45% in size; luciferase light after 4 h
Cruzain inh noDet: blocks cruzain activity in detergent-free assay | P25779 | Potency, µM, without a hit: max response, negative = inhibition, actives largely listed as inhibitors | AID 1476 | actives 2.3% (n = 200,000) | purified cruzain, Z-FR-AMC fluorescence, no detergent; active = well fitted curve in the direction sought with a large enough effect; inconclusive = small, poorly fitted or top-dose-only effect, or another doubt; inactive = no such curve, though single readings can be large; an effect the other way counts as inactive or inconclusive;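 note: plate controls were enzyme without inhibitor for no effect and buffer without enzyme for full effect; nearly all actives have a fitted effect of over 40% in size; top concentration of the series not given in the record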
Target sequence (P25779 123-467 limits assumed): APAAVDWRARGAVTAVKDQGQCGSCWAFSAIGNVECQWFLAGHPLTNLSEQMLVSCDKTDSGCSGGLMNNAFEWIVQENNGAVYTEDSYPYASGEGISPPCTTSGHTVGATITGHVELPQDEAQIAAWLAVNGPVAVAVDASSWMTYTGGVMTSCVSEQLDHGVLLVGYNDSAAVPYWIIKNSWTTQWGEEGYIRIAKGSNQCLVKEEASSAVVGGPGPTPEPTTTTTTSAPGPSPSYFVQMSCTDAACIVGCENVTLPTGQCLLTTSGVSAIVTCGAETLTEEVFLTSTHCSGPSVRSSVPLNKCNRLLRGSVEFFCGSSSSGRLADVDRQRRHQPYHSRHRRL
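Detergent-free condition (0.00005% Triton X-100) in acetate buffer pH 5.5 with DTT. 1.5 nM enzyme and compound were pre-mixed 15 min, then 2 uM Z-FR-AMC substrate added; reaction progress from fluorescence change between first and third reads (60 s).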
SARS PLP yeast: blocks SARS-CoV papain-like protease in a yeast assay | S. cerevisiae expressing SARS-CoV PLpro, growth rescue; control for the full effect not named in the record | Potency, µM (series often up to 32.9 µM), without a hit: top-dose activity, positive = growth rescue | actives 0.19% (n = 330,000); note: 0% is about no effect; nearly all actives have a fitted effect of over 55% in size; growth read by luminescence after 48 h
NS1 function inh: influenza NS1 inhibition; S. cerevisiae slowed by influenza A NS1, growth recovery by OD600; actives 0.4% (n = 270,000); Potency, µM (doses to about 46.1 µM), inactives show top-dose activity, positive = more growth; AID 2326; note: actives are rising curves; nearly all actives have a fitted effect of over 50% in size
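S. cerevisiae expressing influenza A NS1, grown in glucose, washed, then diluted 1:100 into pH 6.0 -URA galactose medium with 23 nl compound. Growth recovery read as OD600; NS1-free strain serves as control.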
Cruzain inh Det: inhibitors of Trypanosoma cruzi cruzain with detergent. actives 0.43% (n = 200,000). purified cruzain, Z-FR-AMC fluorescence, 0.01% Triton. P25779. Potency, µM, inactives show max response, negative = inhibition, usual class: inhibitors; active = well fitted curve in the direction sought with a large enough effect; inconclusive = small, poorly fitted or top-dose-only effect, or another doubt; inactive = no such curve, though single readings can be large; an effect the other way counts as inactive or inconclusive;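 note: plate controls were neutral wells for no effect and buffer without enzyme for full effect; nearly all actives have a fitted effect of over 40% in size; top concentration of the series not given in the record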
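Purified cruzain (1.5 nM final) was preincubated with compounds for 15 min at room temperature in 100 mM sodium acetate pH 5.5, 5 mM DTT, 0.01% Triton X-100. Reaction started with 2 uM Z-FR-AMC; AMC fluorescence change over 60 s gave activity.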
MARV entry inh: blocks Marburg virus binding to or entry into cells; Marburg virus pseudotyped entry inhibition, cell reporter; control for the full effect not named in the record; about a third of the inactives were read at about 46 µM; Potency, µM (top dose mostly 37.8 µM), for inactives: at the top dose activity change, negative = inhibition, most hits filed as inhibitors; actives 1.8% (n = 300,000); AID 540276; active = well fitted inhibition curve with a large enough effect; inconclusive = small, poorly fitted or top-dose-only effect, or effect the other way; inactive = flat fitted curve, though single readings scatter; tested in HEK293 cells; about a fifth of its hits are not listed in these tables; note: % is set by controls: 0 for no effect and ±100 for the full control effect; luciferase read-out
LASV entry inh: inhibitors of Lassa virus binding or cell entry. actives 1.2% (n = 300,000). Potency, µM (titrated, usually from 37.9 µM), inactives show at the top dose activity change, negative = inhibition, most hits filed as inhibitors. Lassa virus pseudotype entry inhibition, cell reporter; control for the full effect not named in the record. AID 540256; active means well fitted inhibition curve with a large enough effect; inconclusive means small, poorly fitted or top-dose-only effect, or effect the other way; inactive means flat fitted curve, though single readings scatter; tested in HEK293 cells; note: % is set by controls: 0 for no effect and ±100 for the full control effect; nearly all actives have a fitted effect of over 50% in size; luciferase read-out
* = called active by the depositor; ? = inconclusive; nt = no result given; & = joins results of further samples; [ ] = another dose, or the depositor's remark. Unless noted, calls come from the whole dose curve; as a rule, active means well fitted rising curve with a large enough effect; inconclusive means small, poorly fitted or top-dose-only effect; inactive means no such curve, though single readings can be large or run the other way. Potency is the fitted concentration of half-maximal effect.

SMILES | RE007 growth inh | StopGo reporter | Cruzain inh noDet | SARS PLP yeast | NS1 function inh | Cruzain inh Det | MARV entry inh | LASV entry inh
O=C(c1nc2ccccn2c1CNCCCn1ncc2ccccc21)N1CCCC1 | -7% | 26% | nt | 0% | 1% | nt | -16%[46.1 µM] | -2%
Cc1cn2c(=O)cc(COC(=O)C(C)Oc3ccccc3)nc2s1 (stereo not given) | nt | -3% | -10% | nt | nt | -2.6% | nt | 0%[46.1 µM]
Cc1cccc(/C=N/n2c(-c3ccco3)n[nH]c2=S)c1 | 4% | -12% | nt | -1% | -4% | nt | nt | nt
COc1cccc(NC(=O)CN(C)CC(=O)Nc2ccc(C)c(S(=O)(=O)N3CCOCC3)c2)c1 | -4% | -9% | nt | nt | nt | nt | ? | -1%
CN(C)c1ccc(CNS(=O)(=O)c2csc(C(N)=O)c2)cc1 | -5% | -21%&-23% | -6% | 16% | -1% | -1.1% | nt | -11%[46.1 µM]
CCN1CCN(C(=O)C2CCC(CNS(=O)(=O)c3ccccc3)CC2)CC1 (stereo not given) | -3% | nt | -6% | -2% | 3% | 1.6% | -10% | 5%
Fc1cccc(NC(=S)NCc2cccnc2)c1 | 7% | 27% | 7% | -23% | 10% | -1.3% | 6% | 6%
Cc1cccc(NC(=O)CSc2nc3c([nH]c4ccccc43)c(=O)n2C)c1C | nt | 47%[activator] | 7% | nt | nt | -0.2% | nt | -25%[46.1 µM]
O=C(N/C(=C\c1cccnc1)C(=O)N1CCC(O)CC1)c1ccccc1 | -10% | 7% | nt | 3% | -5% | nt | 6%[46.1 µM] | 1%
O=C(c1ccc(NS(=O)(=O)c2ccc(F)cc2)cc1)N1CCCCC1 | -16% | -15% | nt | 3% | nt | nt | -19% | 3%
CCOc1ccc(-n2cc(-c3ccccc3)c3c(NCc4ccccc4)ncnc32)cc1 | nt | -11% | -21% | nt | nt | 1.4% | nt | -5%[46.1 µM]
CN(Cc1ccccn1)C(=O)c1ccc2nc(Cc3cccc(Cl)c3)oc2c1 | -1% | 41%[activator] | nt | -6% | -9% | nt | -15% | -29%
O=C(CN(C(=O)c1csnn1)c1ccc(Cl)cc1)NCc1ccc2c(c1)OCO2 | -1% | 47%[activator] | nt | -1% | 15% | nt | -22%[46.1 µM] | nt
C=CCn1c(NCc2ccccc2OC)nc2ccccc21 | -6% | 23% | nt | -4% | -8% | nt | nt | nt
COc1ccc(OCCNC(=O)c2ccccc2Cl)cc1 | 0% | -21% | nt | 1% | -1% | nt | nt | nt
O=C1Nc2ccccc2/C1=C/c1ccc([N+](=O)[O-])cc1 | 10% | 3% | nt | -3% | -41% | nt | 0%[46.1 µM] | ?
CCOC(=O)c1ccc2c(c1)[nH]c(=S)n2CC | 9% | 55%[activator] | nt | 0% | -1% | nt | nt | nt
COc1cc(N2CCOCC2)ccc1/C=C1\C(=O)NC(=O)N(Cc2ccc3c(c2)OCO3)C1=O | -5% | -27% | nt | 0% | nt | nt | 11% | -3%
OCCC1CN(CC2CC2)CCN1Cc1ccc(F)c(F)c1 (stereo not given) | 4% | -15% | nt | ? | 13% | nt | 5% | 8%
COc1ccc(-n2ncc3c2CC(C)(C)CC3NC(=O)C2CCN(C(C)=O)CC2)cc1 (stereo not given) | 3% | 31%[activator] | nt | 2% | -2% | nt | nt | nt
Cc1ccccc1NC(=O)C(=O)NCc1ccccn1 | -15% | 62%[activator] | -1% | -10% | -2% | 9.8% | 20% | 3%
O=C(c1ccc2[nH]c(=O)c(=O)[nH]c2c1)N1CCc2ccccc2C1 | 1% | -9% | nt | 13% | ? | nt | nt | nt
COc1ccc(OC)c(/C=C(\C)C(=O)c2c(C)cc(C)[nH]c2=O)c1 | -3% | 6% | nt | nt | nt | nt | -3% | -3%
NC(=O)CC(NC(=O)c1ccccc1)c1ccc(N2CCN(c3ccccn3)CC2)c([N+](=O)[O-])c1 (stereo not given) | 0% | -20% | nt | -1% | -18% | nt | nt | nt
CCOc1ccccc1Nc1nc2ccccc2c2nncn12 | nt | -17% | -1% | nt | nt | -0.6% | 17%[46.1 µM] | 18%[46.1 µM]
CCC1SC2=NC(C)=C(C(=O)OCCOC)C(c3ccc(C(=O)OC)cc3)N2C1=O (stereo not given) | -8% | -13% | ? | -7% | 9% | -4.6% | -19% | -25%
CC1(C)SC(C)(C)N(C=O)C1C(=O)O (stereo not given) | 4% | -13% | nt | nt | nt | nt | 17% | 18%
Nc1c(C(=O)NCCN2CCOCC2)c2nc3ccccc3nc2n1-c1cccc(F)c1 | 7% | -20% | ? | 4% | -15% | -5.5% | 2% | -5%
Nn1c(SCC(=O)Nc2ccc3c(c2)OCO3)nnc1-c1ccccc1 | 8% | 27% | -5% | 12% | 0% | 6.4% | ? | ?
CCOc1ccc(NC(=O)CN(C)C(=O)c2cc(S(=O)(=O)N3CCCCCC3)ccc2OC)cc1OCC | -21% | -18% | nt | 1% | nt | nt | ? | 3%
C[C@]12CS(=O)(=O)C[C@H]1SC(=S)N2c1ccccc1 | 50% | -17% | nt | -1% | 2% | nt | ? | 3%
Cc1nc(SCC(=O)NCC2CCCO2)c2c(C)c(C)sc2n1 (stereo not given) | -14% | -12% | nt | 7% | nt | nt | -9% | -3%
COc1ccc(N(CCC#N)C(=O)/C(C#N)=C/c2cccs2)cc1 | 56% | 2% | nt | 1% | nt | nt | 0%[46.1 µM] | 2%[46.1 µM]
CN(CC(=O)Nc1ccc(Cl)cc1)C(=O)c1ccc(S(=O)(=O)Nc2ccccc2)cc1 | 1% | -7% | nt | 3% | nt | nt | ? | ?
Cc1nc2c(C(=O)NCc3ccc4c(c3)OCO4)cnn2c(C)c1Cc1ccc(F)cc1Cl | 4% | -8% | 16µM* | 3% | ? | -7.4% | -21% | -11%
CCOC(=O)CC(NC(=O)Cn1nnc(-c2ccccc2C)n1)c1ccc(OC)cc1 (stereo not given) | nt | -20% | 10% | -1% | nt | -3.8% | 1%&1%[46.1 µM] | -10%[46.1 µM]
Cc1cc(NCc2ccccn2)n2ncc(-c3ccc(Cl)cc3)c2n1 | 28µM* | 21% | nt | -1% | -6% | nt | ? | -10%[46.1 µM]
CC1(C)CC2CC(C)(CN2C(=O)CN2C(=O)c3ccccc3C2=O)C1 (stereo not given) | 44% | -9% | 0% | -1% | -1% | 1.1% | 11%[46.1 µM] | 4%
Cc1nc2ccc(Br)cn2c1C(=O)N/N=C\c1ccccc1Cl | -6% | -12% | nt | -4% | -7% | nt | nt | nt
COc1ccc(N2CCN(C(=O)c3cn(C4CCCCC4)c(=O)c4c3c3ccccc3n4C)CC2)cc1 | nt | 28% | -1% | nt | nt | -5.9% | ? | ?
O=C(Cc1cccc2ccccc12)NNC(=O)Nc1ccc(Cl)cc1 | -6% | 48%[activator] | nt | -2% | -58% | nt | ? | -28%
CC(C)(Oc1ccc(Cl)cc1)C(=O)Nc1ccc2oc(-c3ccncc3)nc2c1 | -8% | 0% | 10% | -1% | -5% | -2.1% | ? | -14%
Cc1ccc(N2C(=O)N(CC(=O)NC(c3ccccc3)c3ccccc3)C(=O)C2C)cc1 (stereo not given) | 6% | -6% | ? | 2% | -6% | 2.5% | -13% | -20%
CCCN1CCC(=NNc2ccc(S(=O)(=O)N3CCOCC3)cc2[N+](=O)[O-])CC1 | -16% | -7% | -2% | 1% | 29% | 2.9% | ? | ?
COc1cccc(COC(=O)CCNC(=O)c2ccc(Cl)cc2)c1OC | -15% | 6% | nt | -5% | nt | nt | -5% | -1%
Cc1onc(NC(=O)c2ccc(Cl)cc2Cl)c1Br | -5% | -6% | nt | -6% | -5% | nt | 2%[46.1 µM] | 24%[46.1 µM]
O=C(c1ccc2c(c1)N(Cc1cccc(Cl)c1)C(=O)c1ccccc1S2)N1CCOCC1 | nt | -16% | ? | nt | nt | -1.1% | nt | ?
CCOC(=O)c1[nH]c(C)c(C(=O)N2CCN(C(=O)OCC)CC2)c1CC | 16% | -16% | 7% | 2% | 0% | 1.9% | 10% | 3%
COc1ccccc1C(=O)Nc1ccon1 | -2% | ? | -11% | 5% | -15% | 5.3% | 17% | -30%[14.3 µM]
COc1ccc(N2CCN(C(=O)CCn3nnc4ccccc43)CC2)cc1 | -25% | -12% | 0% | -3% | -10% | -0.8% | 3% | -1%
CCOC(=O)c1c(-c2ccccc2)oc2cc(Br)c(O)c(C=O)c12 | 13% | ? | nt | 11% | 0% | nt | ? | ?
CCCN1C(=O)C(O)(CC(=O)c2cccc(OC)c2)c2ccccc21 (stereo not given) | -16% | -25% | 0% | -3% | -3% | -6.5% | 2% | -1%
O=C(CC(c1ccccc1)c1cc(Cl)ccc1O)N1CCOCC1 (stereo not given) | -2% | 4% | -10% | 7% | -12% | 4.6% | -30%[46.1 µM] | -12%
O=C(Nc1ncc2c(n1)-c1ccccc1CC2)c1cccs1 | -2% | 37%[activator] | nt | -3% | nt | nt | ? | -24%[46.1 µM]
O=C(c1ccccc1)c1ccc(-n2cnnc2)c([N+](=O)[O-])c1 | 13% | -23% | nt | -2% | -12% | nt | 7%[46.1 µM] | 14%
O=C(O)c1cccc(-n2c(-c3cnccn3)n[nH]c2=S)c1 | -2% | -13% | nt | 1% | nt | nt | -16%[46.1 µM] | 5%
O=C(COC(=O)c1ccccc1Nc1cccc(C(F)(F)F)c1)NCc1ccco1 | 16% | ? | 28% | 6% | -3% | -17% | 2%[46.1 µM] | ?
O=C1OCC/C1=C\c1ccc2c(c1)OCO2 | 10% | -1% | nt | 0% | 6% | nt | 7%[46.1 µM] | 12%[46.1 µM]
Cc1ccc(NC(=O)Cn2c(=O)n(CCCCC(=O)NCCc3ccccc3)c(=O)c3ccccc32)cc1 | nt | -9% | 1% | nt | nt | -2.3% | -13%[46.1 µM] | 10%[46.1 µM]
CC(=O)NC(CCS(C)(=O)=O)C(=O)Nc1ccccc1C (stereo not given) | -4% | 3% | 8% | -1% | 9% | 3.0% | -5% | 9%
O=C(CNS(=O)(=O)c1cccc2nsnc12)NCCc1ccccc1 | -3% | 29% | nt | -7% | -1% | nt | nt | nt
Cc1ccc(-c2nc(-c3ccncc3)no2)cc1 | -17% | -23% | nt | 4% | -4% | nt | ? | ?
COc1ccc(Cl)cc1NC(=O)c1oc2ccc(S(=O)(=O)N3CCCCC3)cc2c1C | nt | -18% | -6% | nt | nt | 1.6% | nt | -5%[46.1 µM]
